# NPYLR7 agonist: activates Aedes aegypti NPYLR7 receptor | HEK293T NPYLR7/Galpha15, GCaMP6s calcium fluorescence | 270,000 compounds, 0.15% hits | activation, % at 10 µM; in the data active = activation above about 40%;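 note: 0% = vehicle and 100% = reference agonist at the receptor; some compounds past the cut are filed as inactive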
# NPYLR7 agonist max-min: further read-out of NPYLR7 agonist, marked with its call; activation, %; measured here: Max-Min RFU normalised activation; some inactives read as strong as hits;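 span of the calcium signal over five minutes; 0% = vehicle and 100% = native peptide agonist; compound fluorescence can raise it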
# * marks the source's active call; other numbers are inactive results; & = joins results of further samples. An excerpt; rates above refer to the full screens.
# Screens in order: NPYLR7 agonist	NPYLR7 agonist max-min
Cc1nc2c(c(NCCc3csc(-c4cccnc4)n3)n1)CCNC2
 : -10	-9
COc1cccc(-c2nc(OC)nn2-c2cccc(NS(=O)(=O)c3ccc(Cl)cc3)c2)c1
 : 4	14
O=C(NCc1cccnc1)c1coc(CN(Cc2ccc(F)cc2)Cc2cccc(Cl)c2)n1
 : 15	12
COCC(=O)Nc1ccc(N(C)C)c(CN(CC2CC2)C(=O)COC)c1
 : -5	7
COc1ccc(C2c3[nH]c4ccccc4c3CCN2C(=O)CCCn2cncn2)c(F)c1 (configuration not stated)
 : 0	-3
CCSc1nc(N)c(C#N)c(CC)c1C#N
 : -1	-10
O=C(CCc1ccc2c(c1)OCO2)Nc1nc(C2CC2)cs1
 : 1	0
COc1cccc(-c2cnn3cccnc23)c1F
 : 6	3
COC(=O)c1ccc(C)c(-n2c(N)c(C(=O)NCc3ccc4c(c3)OCO4)sc2=S)c1
 : 6	-4
c1ccc(CNc2nnc(Sc3ncccn3)s2)cc1
 : 3	1
Cc1nc(CC(=O)N(Cc2cncs2)C2CC2)cs1
 : 0	-1
CCOC(=O)N1CCC(N2CCC(CO)(CCCc3ccccc3)CC2)CC1
 : 2&11	1&14
N#Cc1ccc(-c2csc(CCN3CCCC3=O)n2)cc1
 : -4	-4
COCCCN1CN(Cc2ccccn2)Cn2c1nc1ccccc12
 : 0	0
CCCCc1nc(N2CCCN(C(=O)C3CCCCC3)CC2)c2c(C)nn(-c3ccc(F)cc3)c2n1
 : -4	10
COCCNC(=O)c1ccccc1N1CCC(NC(=O)c2ccc([N+](=O)[O-])cc2)CC1
 : 0	3
O=C(c1nn(-c2ccc(Cl)cc2)c(=O)n(Cc2cccnc2)c1=O)N1CCCC1
 : 19	18
O=C(c1ccc(F)c(F)c1)N1CCC(c2nc(-c3ccccc3Cl)no2)CC1
 : 2	-1
COc1ccc(-c2cc(NC=O)c3ncc(-c4cccc(C(C)=O)c4)n3c2)cc1
 : -5	-5
CC(=O)c1ccc(-c2cccs2)s1
 : 6	5
O=C(NCC1CCCCO1)c1cc(COc2c(F)cccc2F)on1 (configuration not stated)
 : -1	-4
COc1ccc(C(=O)Nc2c(-c3ccc(OC)c(OC)c3)nc3ccc(C)cn23)cc1
 : -9	-4
CCOc1ccccc1CN1CCNC(=O)C1CC(=O)NCc1c(C)nn(CC)c1C (configuration not stated)
 : 22	9
CN(C(=O)C1(Cn2cccn2)CC1)C1CCCc2ccccc21 (configuration not stated)
 : -9	-11
COc1ccc(CCNC(=O)c2c(C)noc2-c2ccncc2)cn1
 : -4	-3
Cc1ccc(-c2csc(NC(=O)CN3CSCC3=O)n2)cc1C
 : 0	-3
FC(F)(F)c1cccc(-c2noc(CN3CCc4ccccc4C3)n2)c1
 : 1	-1
CC1CN(C)CCN1C(=O)/C=C/c1ccc(Br)o1 (configuration not stated)
 : 0	-1
Cc1ccccc1CO[C@]1(C(=O)NC2CC2)CC(OCc2ccc(C(F)(F)F)cc2)[C@H](O)[C@H](O)C1 (some centres not stated)
 : 15	15
CCOC(=O)c1ccc2c(c1)nc(SCc1ccccc1OC(F)F)n2Cc1ccccn1
 : 2	-3
COc1cccc(-c2cc(C(=O)N3CCN(c4ccc([N+](=O)[O-])cc4)CC3)n3nc(C(C)(C)C)cc3n2)c1
 : 13	11
COc1cccc(-c2cc(C(=O)N3CCN(C(=O)Nc4ccc(C)cc4C)CC3)c(C)n2-c2ccccc2F)c1
 : 2	9
Cc1cccc(NC(=O)C(C)(C)c2ccc(Cl)cc2)n1
 : 2	0
CC(C)N1CCC(N2CCN(Cc3cc4ccccc4o3)CC2CCO)CC1 (configuration not stated)
 : 12	3
COc1ccc(N2C(=O)CSC2c2cccnc2)cc1 (configuration not stated)
 : -11	-17
O=C(Cn1nc(C2CC2)c2cnn(-c3ccccc3)c2c1=O)OCc1ccccc1
 : 0	-1
CC(C)NCC1(c2ccnc(-c3cccc(N(C)C)c3)c2)CC1
 : -15	-15
CC(C)COc1nc(-c2ccc3c(c2)OCO3)n(-c2ccc(NC(=O)c3ccc([N+](=O)[O-])cc3)cc2)n1
 : 8	7
Cc1ccc2nc(-c3ccc4c(c3)C(=O)N(c3ccc(Sc5ccc([N+](=O)[O-])cc5)cc3)C4=O)oc(=O)c2c1
 : 2	-2
Cc1nccn1CC(C)NCCN1CCCc2ccccc21 (configuration not stated)
 : -2	-1
COC(=O)[C@H]1C[C@@H](O)CCN1S(=O)(=O)c1ccc(C(F)(F)F)cc1
 : 6	-4
CC(=O)c1ccc2c(c1)N(Cc1ccccc1F)C(=O)C(C)S2 (configuration not stated)
 : 0	-4
COCCCN(CC(=O)N(Cc1cccn1Cc1ccccc1Cl)CC(C)C)C(=O)c1cccc(F)c1
 : -3	10
Cc1ccc2cc(C3=C/C(=C/c4cccnc4)C(=O)O3)ccc2c1
 : 0	9
CCOC(=O)N1CCC(n2c(-c3ccc(OC)cc3)csc2=NCCOC)CC1
 : 1	-5
O=C(Nc1cccc(Nc2ccc3nnnn3n2)c1)C1CC1
 : 2	1
COCCNC(=O)c1ccc(CSc2nnc(-c3cccc(OC)c3)n2-c2ccccc2OC)cc1
 : 29	24
O=C(NCc1ccccc1)c1coc(CN(Cc2cccc(F)c2)Cc2cccc(C(F)(F)F)c2)n1
 : 20	16
Cc1ccc(Cc2nc(N3CCN(C(=O)c4cccc([N+](=O)[O-])c4)CC3)c3c(C)nn(-c4ccc(F)cc4)c3n2)cc1
 : -4	1
Cc1ccc(CN(CCc2ccccc2)C(=O)CN(C2CCCCC2)S(=O)(=O)c2ccc(Cl)cc2)o1
 : 4	20
O=C(NN1C(=O)CSC1=S)c1ccco1
 : -2	-6
O=C(NCCc1cccs1)c1ccc(-c2cc(-c3cccc(C(F)(F)F)c3)n[nH]2)cc1
 : -2	3
O=C(C1CC1)N(Cc1ccc(OCc2nc(CO)cs2)cc1)CC1CC1
 : 21	18
Cn1cc(CNC(=O)c2ccc(Br)cc2O)cn1
 : 4	3
Cc1ccc(-n2nc(C(C)(C)C)cc2NC(=O)CN(Cc2ccco2)C(=O)Nc2ccc(Br)cc2)c(C)c1
 : 12	16
C[C@@H](c1ncncc1F)[C@](O)(Cn1cncn1)c1ccc(F)cc1F
 : -3&-8	-3&-15
COc1ccc2nc(N=Cc3nc(-c4cc(Cl)ccc4OC)oc3O)sc2c1
 : -2	-1
O=C(c1ccco1)N1CCN(Cc2cn[nH]c2-c2ccc(F)cc2F)CC1
 : 6&1	5&-3
O=C(NCc1ccccc1)c1ccc2c(=O)n3c(nc2c1)CCCCCC3
 : 1	0
N#CCCSc1nnc(-c2cccnc2)n1-c1ccccc1
 : -1	-3

# The list continues.
# Screens in order: NPYLR7 agonist	NPYLR7 agonist max-min
COc1ccc(C(=O)CC(c2ccc(OC)cc2)S(=O)(=O)c2ccc(C)cc2)cc1 (configuration not stated)
 : -5	-8
Cc1cc(C)n2c(NC3CCCCC3)c(-c3ccc([N+](=O)[O-])cc3)nc2c1
 : 7	11
CN(CC1=CC[C@H]2C[C@@H]1C2(C)C)Cc1nnc(-c2ccccc2)o1
 : -6	-8
CCN(CC)CCCC(C)NC(=O)c1cc(-c2ccc(OC)cc2)nc2cc(C(C)(C)C)nn12 (configuration not stated)
 : 8	12
COc1cc(C=CC(=O)N2CCCC2c2nc3ccccc3s2)c([N+](=O)[O-])cc1OC(F)F (configuration not stated)
 : 7	8
CCCCOC(=O)C1=C(C)NC2=C(C(=O)CCC2)C1c1cccc(OC)c1 (configuration not stated)
 : -3	-6
CCNC(=O)C1(C)CCCN1Cc1cccc(F)c1 (configuration not stated)
 : 2	0
Nc1ccncc1/C(=N\O)c1ccccc1
 : -8	-11
CC(NC(=O)c1ccc(C#N)cc1)c1ccc(C(F)(F)F)cc1 (configuration not stated)
 : 2	0
COCCN(CCNC(=O)N1CCCCCC1)C1CC1
 : 4	0
CC(C)(O)C#Cc1ccc(C(=O)NCCc2cnc3ccccn23)cc1
 : 7	2
CCOc1ccc(-c2ccc(C(=O)N3CCN(c4ncccc4C(=O)NCc4ccc(OC)cc4)CC3)s2)cc1
 : 2	0
COc1ccc(-c2c(C#N)c(SCC(=O)c3ccc(Cl)cc3)nc(C)c2C(=O)Nc2ccccc2)cc1
 : 9	6
Nc1cccc(S(=O)(=O)c2cccc(N)c2)c1
 : 0	-2
Cc1cccnc1C(NC(=O)C1CCN(Cc2cccc(C(F)(F)F)c2)CC1)c1ccc(F)cc1 (configuration not stated)
 : -8	-1
CC(c1nnc(SCC(=O)Nc2ccc3c(c2)OCCO3)n1-c1ccc(F)cc1)N(C)C (configuration not stated)
 : 19	15
O=C(Cc1cccs1)N1CCc2ccccc2C1c1ccccc1Cl (configuration not stated)
 : -3	4
C=CCn1c(SCC)nc2c([nH]c3ccccc32)c1=O
 : 1	0
OC(COCc1ccccc1)CN(Cc1ccco1)Cc1c(-c2ccccc2)noc1N1CCOCC1 (configuration not stated)
 : 2	2
O=C(N[C@@H]1CCCCC1NC(=O)C1CCN(C(=O)C(Cl)c2ccccc2)CC1)c1ccccc1 (some centres not stated)
 : 0	7

# 3 of the compounds above, as tab-separated lines.
SMILES	NPYLR7 agonist	NPYLR7 agonist max-min
CCNC(=O)C1(C)CCCN1Cc1cccc(F)c1 (configuration not stated)	2	0
Nc1ccncc1/C(=N\O)c1ccccc1	-8	-11
CC(NC(=O)c1ccc(C#N)cc1)c1ccc(C(F)(F)F)cc1 (configuration not stated)	2	0

# Structural class, those above with a tert-butyl group.
# Screens in order: NPYLR7 agonist	NPYLR7 agonist max-min
COc1cccc(-c2cc(C(=O)N3CCN(c4ccc([N+](=O)[O-])cc4)CC3)n3nc(C(C)(C)C)cc3n2)c1
 : 13	11
Cc1ccc(-n2nc(C(C)(C)C)cc2NC(=O)CN(Cc2ccco2)C(=O)Nc2ccc(Br)cc2)c(C)c1
 : 12	16
CCN(CC)CCCC(C)NC(=O)c1cc(-c2ccc(OC)cc2)nc2cc(C(C)(C)C)nn12 (configuration not stated)
 : 8	12

# Following part.
# Screens in order: NPYLR7 agonist	NPYLR7 agonist max-min
O=C1NCC2(CCCN(Cc3nc(-c4ccco4)no3)CC2)O1 (configuration not stated)
 : -3	-3
Cc1c(CC(=O)NC2CCSC2)c2c(n1C(C)C)CC(C)(C)CC2=O (configuration not stated)
 : 2	-3
CCOc1ccccc1C(=O)Nc1ccc(N2CCN(C(=O)c3cccc(C)c3C)CC2)nc1
 : 27	16
CCc1nn(-c2ccc(C)cc2)c(CC)c1C(=O)N1CCN(CC)CC1
 : 17	17
CC1CCCN(c2ccc(S(=O)(=O)Nc3ccccn3)cn2)C1 (configuration not stated)
 : -8	-5
CC(C)(C)c1ncc2c(n1)CN(C(=O)c1ccc(Cn3cccn3)o1)C2
 : 5	3
O=C1CCCN2C(=N1)SC(=S)N2CN1CCN(Cc2ccccc2)CC1
 : -1	-3
C=CCn1c(O)c(N=NC(=O)c2ccc3ccccc3n2)c2ccccc21
 : 2	-2
CCc1ccc(C(=O)NC2CCN(c3ccccc3C(=O)N(C)CC)CC2)cc1
 : 13	32
Cc1cc(=O)c(C(=O)Nc2ccc(NC(=O)C(C)n3cncn3)cc2)nn1-c1ccccc1 (configuration not stated)
 : -2	22
CCCN(C(=O)Nc1ccccc1F)C1CCS(=O)(=O)C1 (configuration not stated)
 : 5	2
CC1=C(C(=O)N2CCN(C3CCCCC3)CC2)C2(CCCCC2)OC1=O
 : 10	13
CN(C)c1ccc(C2=NOC(CN(Cc3cccc(C(F)(F)F)c3)C(=O)c3cccs3)C2)cc1 (configuration not stated)
 : 5	15
O=C(Nc1c(F)c(F)c(F)c(F)c1F)N[C@@H](Cc1ccccc1)C(=O)N1CCC(C(=O)N2CCCCC2)CC1
 : 2	-1
Cn1c(N)c(S(=O)(=O)N2CCc3ccccc3C2)c(=O)n(C)c1=O
 : 4	1
Cc1cc(NC(=O)CSc2nnnn2C2CC2)ccc1N1CCCC1
 : 1	6
COc1cc(NCc2ccccc2CN(C)C)ncn1
 : 2	0
CC(C)(C)c1cc2nc(C(=O)NCCc3ccccn3)cc(-c3ccccc3F)n2n1
 : 2	12
O=C(NC1CC1)c1cc2n(n1)CCN(C(=O)c1cccc3c1NCCC3)C2
 : 2	-3
COCc1nn2c3c(cnc2c1-c1ccccc1)C(=O)CCC3
 : 3	1
CCN(CC)CCn1c(=O)n(C)c(=O)c2[nH]cnc21
 : 3	0
CCCCC(=O)N1CCN(c2cnn(-c3ccccc3)c(=O)c2Cl)CC1
 : 11	5
CC[C@H](C)C(=O)N1CCCC1c1nnc2c(C(F)(F)F)cccn12 (some centres not stated)
 : -7	-16
CCc1cc2c(=O)c(-c3ccc(OC)cc3)coc2cc1O
 : -10	-14
CCOC(=O)c1ccc2c(c1)nc(SCc1ccc(Cl)c(Cl)c1)n2CCc1ccc(OC)cc1
 : 2	-2
COc1cccc(C2c3[nH]c4ccccc4c3CCN2C(=O)c2ccsc2)c1OC (configuration not stated)
 : -6&6	-7&1
CC(C)(C)C(=O)Nc1ccc(NC(=O)c2cnc[nH]2)cc1Cl
 : -1	8
CN(C)c1ccc(/C=N\NC(=O)c2cc(=O)[nH]c3ccccc23)cc1
 : -3	-9
Cc1cccc(-n2c(SCC(=O)N3CCC(C)CC3)nnc2-c2cccs2)c1
 : -4	4
O=C(Cc1ccccc1F)Nc1ccc2c(c1)CN(C(=O)CC1=CCCCC1)CC2
 : -2&8	0&5
NC(=S)NN=CC(Cl)=C(Cl)C(=O)O
 : -6	-6
CCOC(=O)Cn1c(=O)c2c(nc3n2CCCN3c2ccc(Br)cc2)n(C)c1=O
 : 12	9
COc1ccc(NC2CS(=O)(=O)CC2O)cc1 (configuration not stated)
 : -3&-1	-4&-5
O=CNc1ccc(C(=O)NC(c2ccccc2)C2CCOCC2)cc1 (configuration not stated)
 : 3	3
COc1cc(C(=O)N2CCC(c3cc(C(C)C)n[nH]3)CC2)nc(OC)n1
 : 5	3
CCCS(=O)(=O)N1CCCN(c2nc3ccccc3nc2C(=O)OCC)CC1
 : 10	4
Cc1ccc(NC2CCN(C(=O)Nc3ccccc3C)CC2)cc1
 : -32	-29
COC(=O)C(C)Sc1nc2c([nH]c3ccccc32)c(=O)n1-c1ccc(F)cc1 (configuration not stated)
 : 0	25

# High-throughput results from PubChem BioAssay.
